Source: PubChem (ICCB-Longwood Screening Facility, Harvard Medical School)
Bm FixLJ act = B. multivorans fixK reporter activation | B. multivorans fixK-promoter GFP reporter, 18 h; stronger effect = higher value | z-score (test concentration not listed) | actives 0.3% (n = 29,000) | AID 1918990;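 active = replicate mean overnight rise in green fluorescent reporter signal, 3 or more SD over negative controls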;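 note: score is relative to vehicle wells of the plate; 300 nL library stock went into each well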
An asterisk follows results filed as active.

SMILES	Bm FixLJ act
COc1cccc(CNC(=O)c2cc3c(s2)-c2ccccc2OC3)c1	0.75
CCOCCCNC(=O)C(c1ccc(Cl)cc1)N(Cc1ccc2c(c1)OCO2)C(=O)c1ccccc1O (stereo not drawn)	-1.4
COc1cccc(-c2noc(COc3cccc(C)c3C)n2)c1	-0.28
Cc1ccc(S(=O)(=O)c2nc(S(=O)(=O)c3ccc(C)cc3)c(NC(C)C)s2)cc1	-1
CCOc1ccc(NC(=O)CC2C(=O)N(c3ccccc3)C(=O)N2CCc2ccc(OC)cc2)cc1 (stereo not drawn)	-1.6
NC(=O)CCCn1cc(-n2ccnc2-c2ccc(OC(F)F)cc2)cn1	0.35
CNC(=O)c1ccc(OC2CCN(Cc3ccccn3)CC2)cc1	-0.92
CCOC(=O)c1ccccc1NC(=O)C(=O)Nc1ccc2nc3n(c(=O)c2c1)CCCCC3	1.4
COc1cc(NC(=O)C(CC(C)C)NS(=O)(=O)c2ccc3c(c2)oc(=O)n3C)c(C(=O)O)cc1OC (stereo not drawn)	1.4
Cc1nc2ccccn2c1C(=O)N1CCCC(C(=O)Cc2ccccc2)C1 (stereo not drawn)	0.7
Cc1cc(OCC(=O)Nc2c(C(=O)c3ccccc3)oc3ccccc23)cc(C)c1Cl	-1.9
CCc1nc(C)c(CNC(=O)N(Cc2cocn2)Cc2cocn2)s1	-0.06
CCOc1ccccc1C(=O)Nc1ccc(S(=O)(=O)Nc2nc(C)cc(C)n2)cc1	-1.5
Cc1cc(C)cc(NC(=O)C(CC(C)C)NC(=O)C2CCCCC2)c1 (stereo not drawn)	0.32
CCn1cnnc1CCNC(=O)c1cn[nH]c1-c1cccs1	-0.85
CCSc1nnc2c(n1)OC(c1ccc(C)cc1)N(C(C)=O)c1ccccc1-2 (stereo not drawn)	-2.4
COc1ccc2c(C)c(C(=O)N(C)CC3CC(=O)N(C4CCCC4)C3)oc2c1 (stereo not drawn)	-0.66
CCOc1c(Br)cc(C2CC(=O)Nc3cc4c(cc32)OCO4)cc1OC (stereo not drawn)	0.59
Cc1cccc(OCC(=O)Nc2ccc(Cl)c(-c3nc4ncccc4o3)c2)c1C	1.1
Cc1ccc(NC(=O)CSc2nc3c(sc4ccccc43)c(=O)n2CCCC(=O)NC2CCCC2)cc1C	1
Cc1nc2nc(C)c(NS(=O)(=O)c3ccc(CC(C)C)cc3)c(=O)n2[nH]1	-0.66
CCCc1cc(C(=O)Nc2c(C)nn(Cc3ccc(C)cc3)c2C)no1	-1.4
CN(C)CCC=C1c2ccccc2CCc2ccccc21	0.13
Cc1ccc(C(=O)Nc2ccc(F)cc2)cc1S(=O)(=O)N1CCCCCC1	-1.3
Nc1cc(-c2ccc(C(=O)N3CC[C@@]4(O)CCNC[C@H]4C3)cc2)ncn1	-1.6
Cc1cc(C)cc(Nc2nc3cc(Cl)c(Cl)cc3nc2-n2nc(C)cc2C)c1	-0.24
CC1CCc2noc(NC(=O)c3ccc([N+](=O)[O-])cc3)c2C1 (stereo not drawn)	-0.76
O=C(Nc1c(-c2ccccc2)nc2ccccn12)c1ccccc1F	-0.56
CCC(C)[C@H]1O[C@]2(C=C[C@@H]1C)C[C@@H]1C[C@@H](C/C=C(\C)[C@@H](OC3C[C@H](OC)C(O[C@H]4C[C@H](OC)[C@@H](O)[C@H](C)O4)[C@H](C)O3)[C@@H](C)/C=C/C=C3\CO[C@@H]4[C@H](O)C(C)=C[C@@H](C(=O)O1)[C@]34O)O2 (stereo partly drawn)	0.52
CCOc1ccc(CCNC(=O)c2cc3sccc3n2CC)cc1OCC	0.71
CC1(C(=O)N2CCC(c3nnc(Cn4ccnc4)n3C3CC3)CC2)CC1	-0.66
COc1ccc(CCNC(=O)CSc2nnnn2-c2cccc(C(C)=O)c2)cc1OC	-2.7
Cc1ccc(Cl)cc1N1CCN(S(=O)(=O)c2ccc3oc(=O)c4ncn(C)c4c3c2)CC1	-0.19
Fc1cccc(F)c1CN1CCn2nc(CNc3cnccn3)cc2C1	-1.8
CC(C)c1ccc(S(=O)(=O)c2cn(CC(=O)Nc3ccc(F)cc3)c3ccccc3c2=O)cc1	-2.2
CCOC(=O)N1CCC(NC(=O)c2ccc3c(c2)N(Cc2cc(C)ccc2C)C(=O)c2ccccc2S3(=O)=O)CC1	-1.1
CCn1cc(C(=O)N2CCN(c3cccc(Cl)c3)CC2)c(=O)c2cc(S(=O)(=O)N3CCCCC3)ccc21	-1.2
CCn1cc(S(=O)(=O)c2ccccc2)c(=O)c2cc(C)ccc21	-0.97
COc1cc(Cl)cc(CNC2CCCN(C(=O)C(C)C)C2)c1OC (stereo not drawn)	1.1
CN1CCCN(CC(=O)N2CCCC(c3ccnn3CC(=O)O)C2)CC1 (stereo not drawn)	0.69
CCC(NC(=O)c1cc(C)c(C)c(S(N)(=O)=O)c1)c1ccnn1C (stereo not drawn)	0.47
COc1ccc(CSc2nc3ccncc3n2CC(=O)Nc2cc(C)cc(C)c2)cc1	-1.4
Cc1ccc(NC(=O)c2ccc(Br)cc2)c(C(=O)c2ccccc2)c1	-1.2
Cc1cccc(OCC(=O)Nc2c(C(=O)Nc3ccc(F)cc3)oc3ccccc23)c1	1.1
Cc1ccccc1-n1cc(CN(C)Cc2[nH]cc(C)c(=O)c2C)cn1	-0.4
COc1ccccc1N1CCN(c2cc(C)nc3nncn23)CC1	-0.47
Cc1ccc(C(=O)Nc2ccc3oc(-c4ccc(C(C)(C)C)cc4)nc3c2)cc1	-1
O=C(Nc1ccc(F)cc1F)N1CCN(c2ccc(Cl)c(Cl)c2)CC1	-2.4
COc1ccc(NC(=O)c2sc3nc4c(cc3c2N)CCCCCC4)cc1OC	-0.83
N#Cc1cccc(N2CCCC(c3nccn3Cc3cccnc3)C2)n1 (stereo not drawn)	-2.4
CC(=O)N1CCCC(C(=O)NCCCc2nc3ccc(Cl)cc3[nH]2)C1 (stereo not drawn)	0.41
Cc1nn(CC(=O)N(C)C(C)c2ccncc2)c(=O)n1CCc1ccccc1 (stereo not drawn)	-1.6
Cc1ccc(C(=O)Nc2sc3c(c2C(=O)NCc2ccco2)CCC(C(C)(C)C)C3)cc1 (stereo not drawn)	-0.61
CCCCCOc1ccc(NC(=O)Cn2c(-c3cncs3)nc3ccccc32)cc1	-0.66
Cc1nc(C)c(C(=O)NC2CCOCC2OCc2ccccc2)s1 (stereo not drawn)	0.67
O=C(Nc1ccc(Oc2nn[nH]n2)cc1)c1ccc2scnc2c1	-0.05
CO[C@@]12CCC(O)CC1N(C(=O)c1c(C)nn3c(C)cc(C)nc13)CC2 (stereo partly drawn)	-1.9
Cc1ccc(N2C(=O)c3oc4cc(C)c(C)cc4c(=O)c3C2c2cccc(O)c2)nc1 (stereo not drawn)	-0.16
NS(=O)(=O)c1ccc(CNC(=O)CCN2CCCCCC2=O)cc1	0.42
CC(=O)c1cc(C(=O)N(C)Cc2cn[nH]c2-c2ccc(F)cc2)cs1	-0.13

A draw from above in order of length of the SMILES, high to low:
SMILES	Bm FixLJ act
CC(=O)c1cc(C(=O)N(C)Cc2cn[nH]c2-c2ccc(F)cc2)cs1	-0.13
CC(=O)N1CCCC(C(=O)NCCCc2nc3ccc(Cl)cc3[nH]2)C1 (stereo not drawn)	0.41
N#Cc1cccc(N2CCCC(c3nccn3Cc3cccnc3)C2)n1 (stereo not drawn)	-2.4

Continued:
SMILES	Bm FixLJ act
CCCCCCCCCCCCC[N+](C)(C)Cc1ccccc1	-4.1
CCC(=O)N1c2ccc(S(=O)(=O)N3CCN(c4ccccc4)CC3)cc2CC1C (stereo not drawn)	-0.85
CN1CCc2cccc3c2C1Cc1ccc(O)c(O)c1-3 (stereo not drawn)	-0.66
CCC1=Nc2cc(C(=O)NCCCOC)ccc2Sc2ccc(Br)cc21	-0.87
CCN(CCCNC(=O)c1cc2c(=O)n(C)c3ccccc3c2s1)c1ccccc1	0.26
Cc1nc2ncnn2c(C)c1CCC(=O)N1CCN(c2cccc(Cl)c2)CC1	0.4
CCCN(CCC)CCNC(=O)Cn1cnc2sc(C)c(S(=O)(=O)N3CCC(C)CC3)c2c1=O	1.1
COc1ccc(Cl)cc1NC(=O)c1noc2c1CCc1ccccc1-2	-0.61
CCCCn1ccnc1C1CCCN(C(=O)CN2CCCCC2=O)C1 (stereo not drawn)	-2.3
O=C(CCn1c(=O)[nH]c2ccccc21)N1CCC2(CC1)OCCc1sccc12	-0.2
Cc1ccc2occ(CC(=O)Nc3ccc(Cl)c(C(F)(F)F)c3)c2c1	1.4
COc1ccc(N2CCN(C(=O)c3cn(CC(C)C)c(=O)c4c3c3ccccc3n4C)CC2)cc1	-0.51
COc1ccc(CC(=O)Nc2ccc3nc(N4CCCCC4)cc(C)c3c2)cc1	-2.2
COc1ccc(CCNC(=O)CCc2c(C)c3cc4c(C)c(C)oc4cc3oc2=O)cc1	1.7
CN(CCC(=O)N1CCC(c2ccn[nH]2)CC1)C1CCS(=O)(=O)C1 (stereo not drawn)	-0.72

Next part (four carried over from the part before).
SMILES	Bm FixLJ act
COc1ccc(N2CCN(C(=O)c3cn(CC(C)C)c(=O)c4c3c3ccccc3n4C)CC2)cc1	-0.51
COc1ccc(CC(=O)Nc2ccc3nc(N4CCCCC4)cc(C)c3c2)cc1	-2.2
COc1ccc(CCNC(=O)CCc2c(C)c3cc4c(C)c(C)oc4cc3oc2=O)cc1	1.7
CN(CCC(=O)N1CCC(c2ccn[nH]2)CC1)C1CCS(=O)(=O)C1 (stereo not drawn)	-0.72
Cc1ccc(-c2cc3c(n2-c2ccc(C)cc2)CC(C)(C)CC3=O)cc1	-0.87
COc1ccc(NC(=O)c2cc3c(=O)n(C)c4ccccc4c3s2)cc1Cl	-0.62
CCCn1c(CN2CCN(c3ccc(OC)cc3)CC2)nc2c1c(=O)[nH]c(=O)n2C	1.2
Cc1ccc(NC(=O)CN2c3ccccc3S(=O)(=O)c3ccccc32)cc1F	-0.85
Cc1nc2c(c(C)c1CCC(=O)NCc1ccc(F)cc1)c(=O)n(C)c(=O)n2C	-0.21
CCN(C(=O)CN(C)S(=O)(=O)c1ccc2c(c1)c(=O)n(C)c(=O)n2C)c1ccc(OC)cc1	-0.01
NC(=O)c1noc(CNC(=O)N2CCCC(c3nc4ccccc4o3)C2)n1 (stereo not drawn)	-0.38
COc1ccc(CNC(=O)C(CC(C)C)NS(=O)(=O)c2ccc3c(c2)oc(=O)n3C)cc1 (stereo not drawn)	-0.88
COC(=O)c1c(NC(=O)c2cccc(OC)c2)sc2c1CCC(C(C)(C)C)C2 (stereo not drawn)	-1.4
COCCNC(=O)CCCn1c(SCC(=O)c2ccc(F)cc2)nc2c(sc3ccccc32)c1=O	0.05
CCc1ccccc1C(=O)NCc1cc2n(n1)CCN(C(=O)C1CCC1)C2	1.8
CCOC(=O)CN(Cc1ccccc1)C(C(=O)NC1CCCCC1)c1ccc(C)cc1 (stereo not drawn)	-2.6
CC1CN(c2nccc(-c3cc(C(=O)O)ccn3)n2)CC(C)O1 (stereo not drawn)	-3.4
Cc1ccc(S(=O)(=O)C2(C(=O)Nc3ccc(Cl)c(C(F)(F)F)c3)CC2)cc1	-0.18
NC(=O)c1ccccc1NC(=O)c1ccc(-c2ccc(Br)cc2)o1	-1.3
CCCn1c(=O)c2sccc2n2c(CCCC(=O)Nc3ccc(Oc4ccc(Cl)cc4)cc3)nnc12	2.2
COCCC1CCCCN1C(=O)c1cnc(-c2ccccn2)[nH]c1=O (stereo not drawn)	0.75
O=C(Cn1c(=O)n(-c2ccc(F)c(Cl)c2)c(=O)c2sc3ccccc3c21)NC1CCCC1	-2.1
CCCCNc1nc(Oc2ccc(OCC)nn2)nc(N2CCOCC2)n1	-2
COc1cc(C(=O)Nc2ccccc2OCc2cc(=O)n3cc(C)sc3n2)cc(OC)c1OC	2.4
O=C(Nc1cc(-c2ccc(Cl)cc2)no1)c1ccc(F)cc1	-0.33
Cc1ccc(OCC(=O)N(Cc2ccco2)Cc2ccc(C)o2)cc1	0.25
O=C(CC1Oc2ccc(Cl)cc2NC1=O)NCc1ccccc1 (stereo not drawn)	0.13
CCc1cnc(C)nc1N1CCC(n2cc(C(=O)N3CCCCC3)nn2)CC1	-0.74
Cc1ccc(C(=O)Nc2ccc(OCc3cc(=O)n4c5c(sc4n3)CCCC5)cc2)cc1	-0.86
COc1ccc(C2CC(=O)c3cc(-c4nc(-c5cccc(Cl)c5)cs4)c(=O)[nH]c3C2)cc1OC (stereo not drawn)	1
CN(C)C(=O)CN1CCC(O)[C@]2(CCCN(C(=O)C3CCCCCC3)C2)C1 (stereo partly drawn)	-0.6
Cc1ccc2c(c1)NC(=O)C(CC(=O)Nc1cc(Cl)ccc1C)O2 (stereo not drawn)	-0.43
O=C(Cn1c(=O)n2nc(-c3ccccc3)nc2c2ccccc21)Nc1ccccc1C(F)(F)F	-0.15
CCOc1ccc(N2CC(c3nc4ccccc4n3CCOc3ccc(OC)cc3)CC2=O)cc1 (stereo not drawn)	-4
O=C(CC1COCCN1C(=O)c1c(F)cccc1Cl)N1CCC(O)CC1 (stereo not drawn)	0
Cc1ccc2cc(-c3ccc(C(=O)N4CCOCC4CO)cc3)ccc2n1 (stereo not drawn)	0.78
CCOc1cccc(CC(=O)N2CCc3c([nH]c4ccc(OC)cc34)C2c2ccc(F)cc2)c1OCC (stereo not drawn)	0.16
O=C(NCC(=O)N1CCC2(CC1)OCCc1sccc12)c1ccccc1	-0.97
CC(C)S(=O)(=O)c1oc(-c2cccs2)nc1S(=O)(=O)c1ccc(F)cc1	-4.2

A portion from the list above, as a working copy:
SMILES	Bm FixLJ act
O=C(Cn1c(=O)n2nc(-c3ccccc3)nc2c2ccccc21)Nc1ccccc1C(F)(F)F	-0.15
CCOc1ccc(N2CC(c3nc4ccccc4n3CCOc3ccc(OC)cc3)CC2=O)cc1 (stereo not drawn)	-4
O=C(CC1COCCN1C(=O)c1c(F)cccc1Cl)N1CCC(O)CC1 (stereo not drawn)	0
Cc1ccc2cc(-c3ccc(C(=O)N4CCOCC4CO)cc3)ccc2n1 (stereo not drawn)	0.78

Some of the compounds tested; the hit share may differ from the screen's.
